From PubChem
GLA inh pH 4.5 – blocks human alpha-galactosidase A at pH 4.5; P06280; purified enzyme, 4-MU-alpha-Gal fluorescence, pH 4.5; activity change, negative = inhibition, % at 105 µM; 230,000 tested, under 10 active; AID 1467; inconclusive = small, poorly fitted or top-dose-only inhibition, or a rising curve; inactive = flat fitted curve, though single readings scatter; no compound was filed as active;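 further: 0% = full activity with enzyme and -100% = basal without enzyme; dose as in the result columns while the protocol names 77 µM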
Target sequence (P06280 whole entry, looked up): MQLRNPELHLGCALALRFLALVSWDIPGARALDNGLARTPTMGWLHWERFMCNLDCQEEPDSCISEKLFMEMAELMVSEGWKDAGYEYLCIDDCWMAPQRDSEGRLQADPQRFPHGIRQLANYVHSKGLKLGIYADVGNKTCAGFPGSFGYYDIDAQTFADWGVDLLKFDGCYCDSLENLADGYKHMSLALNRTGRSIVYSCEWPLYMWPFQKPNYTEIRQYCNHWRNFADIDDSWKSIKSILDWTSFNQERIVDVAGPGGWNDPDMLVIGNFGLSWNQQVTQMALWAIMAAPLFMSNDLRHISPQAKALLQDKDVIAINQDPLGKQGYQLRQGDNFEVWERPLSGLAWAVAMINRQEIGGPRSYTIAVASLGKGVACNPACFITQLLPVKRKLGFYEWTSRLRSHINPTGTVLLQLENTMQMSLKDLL
miR-21 reporter – raises the signal of a miR-21 reporter | HeLa miR-21 FLuc reporter, luciferase, 48 h | Potency, µM (doses to about 38.3 µM), inactives show top-dose reporter change, positive = more light | 340,000 tested, under 10 active | AID 2288; active = well fitted rising curve with a large enough effect; inconclusive = small, poorly fitted or top-dose-only effect; inactive = no such curve, though single readings can be large or run the other way;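 further: % of control where 0% means no effect; miR-21 action dims this reporter so a rising signal means less miR-21 action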
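HeLa cells endogenously expressing miR-21, stably carrying CMV-driven firefly luciferase with a downstream miR-21 binding site, 2000 cells/well. Titrations up to approximately 40 uM, 48 hours; luciferase luminescence read.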
Rango dissoc inh – prevents RanGTP from dissociating the Rango-importin beta complex | O95149+P62826 | Biochemical FRET Rango-importin beta, RanGTP-induced dissociation | Potency, µM (highest dose often 46.1 µM), inactives show at the highest dose activity change, negative = inhibition | actives 0.071% (n = 340,000) | AID 540253; active means falling FRET ratio curve, often poorly fitted, with flat reads before Ran was added; inconclusive means other falling curves, or compound fluorescence or quenching; inactive means flat or rising ratio curve;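 further: potency means the concentration at half of the fitted maximal effect; % of control where 0% means no effect; nearly all actives have a fitted effect of over 45% in size; -100% = wells without RanGTP and RCC1; the record marks most hits as doubtful in a second field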
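FRET read at 45 min, room temperature: inhibitors block the CFP/YFP signal rise when RanGTP (0.6 uM Ran, 2 mM GTP, 0.2 uM RCC1) frees Rango (0.1 uM) from importin beta (0.25 uM). Pre-read after 5 min compound exposure flags interference.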
Rango-impB inh – prevents formation of the Rango-importin beta complex | actives 0.031% (n = 340,000) | AID 540263 | Potency, µM (highest dose often 92.2 µM), inactives show at the top dose inhibition of complex formation | Rango CFP/YFP FRET sensor + importin beta, 45 min; active = rising FRET ratio curve, often small or poorly fitted; inconclusive = mostly compound fluorescence or quenching in the first reads; inactive = flat curves in all reads;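 further: potency means the concentration at half of the fitted maximal effect; 0% = DMSO wells and 100% = buffer wells lacking importin beta; nearly all actives have a fitted effect of over 15% in size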
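FRET biosensor Rango (snurportin 1 IBB between N-terminal EYFP and C-terminal Cerulean), 50 nM in PBS/1 mM DTT/0.02% Tween-20/0.1% BSA, preincubated 5 min RT with compound; 0.125 microM importin beta added, 45 min RT, CFP/YFP FRET ratio read.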
Active calls of the source: *; ? = inconclusive; nt = no result given; [ ] = dose if it differs, or a comment. Some of the compounds tested; count on the stated rates, not on these rows.

SMILES	GLA inh pH 4.5	miR-21 reporter	Rango dissoc inh	Rango-impB inh
Cc1cc(C(=O)NNC(=O)NC(C)C)no1	-4	4%	-21%	0.4%
CN(C)C(=O)CSc1nc(-c2ccccc2)nc2c1CCCC2	-11	-8%	1%	0.3%
COc1ccc(CNC(=O)COC(=O)c2cnccn2)cc1	5	-3%	14%	0.8%
CN(CC(=O)Nc1ccc(Cl)c(C(F)(F)F)c1)C(=O)CCCc1nc2ccccc2c(=O)[nH]1	nt	nt	16%	0.6%
Cc1ccc(C)c(NC(=O)CCN2C(=O)C3CC=CCC3C2=O)c1 (centres undefined)	nt	nt	-8%	-1.7%
Cc1csc(NC(=O)CSc2ccc3nnc(CCNS(=O)(=O)c4ccccc4)n3n2)n1	6	1%	-9%	?
Cc1[nH]c(=O)c(C(=O)c2ccccc2O)cc1C(=O)O	2	1%	-22%	1.5%
CCOc1ccc2c(c1)C(C)=CC(C)(C)N2C(=O)Nc1ccccc1F	2	-17%	-25%	-6.1%
Cc1cccc(-n2c(Cc3ccccc3)n[nH]c2=S)c1	-3	1%	0%	2.9%
Cc1cc(=O)[nH]c(SCC(=O)Nc2nnc(CC(C)C)s2)n1	1	-3%	-3%	2.4%
CCN(C/C=C/c1ccccc1OC)Cc1ccccc1	nt	7%	27%	-2.9%
COc1ccc(C)cc1NC(=O)CCCN1C(=O)CN(C)C1=O	nt	nt	-20%	3.7%
CCC(C)NC(=O)COC(=O)c1ccc(Cl)cc1O (centres undefined)	8	1%	12%	0.7%
CC1(C(=O)NC2CCCC2)CCC(=O)N1CCC1=CCCCC1 (centres undefined)	-1	-4%	-10%	-3.6%
COc1cc(OC)c(C(=O)NCc2ccc3c(c2)OCO3)cc1OC	nt	-8%	-6%	1.0%
Cc1ccc(S(=O)(=O)N2CCN(CN3C(=O)CC4(CCCC4)C3=O)CC2)cc1	nt	nt	-2%	-1.3%
CN=C(Nc1ccc(C(=O)OC)cc1)SC1CC(=O)N(c2ccccc2F)C1=O (centres undefined)	4	-5%	-12%	-0.9%
CC(=O)N(Cc1cc2cc(C)ccc2[nH]c1=O)c1cccc(C)c1C	nt	0%	2%	1.5%
O=C(COC(=O)c1ccccc1Nc1ccccc1)Nc1ccccc1	-3	-3%	8%	0.5%
OC(COc1ccccc1)CN1CCOCC1 (centres undefined)	3	-16%	20%	-2.0%

Filtered by structure, the compounds so far with a Cl atom.
SMILES	GLA inh pH 4.5	miR-21 reporter	Rango dissoc inh	Rango-impB inh
CN(CC(=O)Nc1ccc(Cl)c(C(F)(F)F)c1)C(=O)CCCc1nc2ccccc2c(=O)[nH]1	nt	nt	16%	0.6%
CCC(C)NC(=O)COC(=O)c1ccc(Cl)cc1O (centres undefined)	8	1%	12%	0.7%

New compounds follow
SMILES	GLA inh pH 4.5	miR-21 reporter	Rango dissoc inh	Rango-impB inh
CCCCn1c(=O)cc(N2CCOCC2)[nH]c1=O	2	-1%	6%	0.3%
CCOCCCNC(=O)C(NC(=O)CNC(=O)c1ccccc1)c1ccc(C)cc1 (centres undefined)	3	0%	9%	-3.7%
Cc1ccc(C(=O)OCC(=O)NCc2ccc(F)cc2)o1	nt	nt	9%	0.6%
O=C(NC1CC1)C1CC(=O)N(c2cccc(Cl)c2)C1 (centres undefined)	nt	-28%	-6%	0.4%
CCc1ccc(C(=O)NC(CCSC)C(=O)OC)cc1 (centres undefined)	-14	-10%	4%	-4.7%
CCOc1ccc(CC(=O)NCCS(=O)(=O)N2CCN(c3ccccc3)CC2)cc1	nt	nt	-17%	0.4%
CCOC(=O)c1sc(NC(=O)c2ccc(Cl)s2)cc1C	11	-55%	-5%	-1.3%
COc1ccccc1N(CC(=O)NCCSc1ccc(Cl)cc1)S(C)(=O)=O	-2	8%	-7%	-4.1%
COc1ccc(CNC(=O)CN(C)S(=O)(=O)c2ccc(Cl)cc2)cc1	3	-4%	-21%	-2.1%
Cc1cccc(Nc2nnc(SCC(=O)Nc3cccnc3Cl)s2)c1	0	-22%	2%	-1.4%
CCOCCCNC(=O)c1ccc(CS(=O)(=O)Cc2cccc(C)c2)o1	-10	-1%	8%	0.3%
COc1ccc(/C=C\C(=O)NCc2ccc3[nH]c(C)cc3c2)cc1OC	5	-19%	3%	-0.2%
Cc1onc(-c2ccccc2Cl)c1C(=O)N(Cc1ccccc1)C(C)C	nt	7%	-3%	0.3%
CC(=O)Nc1ccc(SCC(=O)OCC(=O)NC(=O)NC2CCCC2)cc1	3	-1%	-7%	-0.5%
O=S(=O)(CCSc1nc2ccccc2o1)Cc1ccccc1	-20	2%	1%	4.6%
Cc1ccc(NC(=O)COC(=O)CNC(=O)C2CCCCC2)c(Br)c1	11	9%	13%	-1.8%
O=S(=O)(Cc1ncc(C(F)(F)F)cc1Cl)c1ccccc1	nt	1%	-3%	?
CSc1ncccc1C(=O)Nc1ccc(C)cn1	nt	-23%	7%	-4.7%
CCOC(=O)C1=C(C)NC(=S)NC1c1ccc(OCC(=O)N2CCCCCC2)cc1 (centres undefined)	nt	1%	-4%	?
CCOc1ccc(S(=O)(=O)Nc2ccc(C(=O)NN)cc2)cc1	5	-22%	-2%	-2.0%
CC(=O)c1cccc(NC(=O)COC(=O)c2n[nH]c3ccccc23)c1	-12	-13%	2%	-0.1%
O=C1c2ccccc2[C@@H]2C[C@@H](O)[C@H](Nc3cccc(C(F)(F)F)c3)CCN12	nt	nt	10%	2.1%
CCOC(=O)c1cnc(SC2CC(=O)N(c3ccc(C)cc3)C2=O)nc1N (centres undefined)	11	-13%	2%	-1.4%
Cc1ccccc1C(=O)N1CCC(C(=O)Nc2cccc(F)c2)CC1	-1	-4%	3%	3.1%
O=C1NC2(CCc3ccccc32)C(=O)N1CCOc1ccc(Cl)cc1 (centres undefined)	11	-10%	13%	-0.8%
CCCCc1cc(=O)oc2cc(C)cc(OC(C)C(=O)O)c12 (centres undefined)	1	-10%	33%	0.2%
CCC(C)[C@H](N)c1cn([C@@H](CCCCN)C(=O)N2CCNCC2)nn1 (some centres undefined)	2	1%	-1%	-0.4%
Cc1c(/C(O)=C2\C(=O)C(=O)N(CCCN(C)C)C2c2cccs2)cnn1-c1ccccc1 (centres undefined)	nt	nt	?	-4.2%
Cc1nc2c(-c3ccccc3)cnn2c(N)c1-c1ccccc1	nt	0%	-2%	-1.9%
Cc1cc(=O)oc2cc(OC(C)C(=O)NCC3CCC(C(=O)O)CC3)ccc12 (centres undefined)	nt	-1%	?	-0.5%
COc1cccc(/C=C2\SC(=S)N(NS(=O)(=O)c3ccccc3)C2=O)c1OC	nt	?	-11%	4.3%
CCN(CC(=O)Nc1ccccc1C(=O)Nc1ccccc1)Cc1nc2ccccc2c(=O)[nH]1	-1	-1%	1%	0.1%
O=C(N/N=C/c1ccc(OC(=O)c2ccccc2Cl)cc1)c1ccccn1	nt	-30%	-9%	-4.8%
COc1ccc(CN(C(=O)c2snc(C(N)=O)c2N)C(C(=O)NC2CCCC2)c2ccc(OC)cc2)cc1 (centres undefined)	nt	-1%	-14%	1.3%
O=C(CSc1nncs1)Nc1ccc2[nH]c(=O)[nH]c2c1	nt	nt	5%	-0.6%
COc1ccc(-c2c3c(=O)n(C)c(=O)n(C)c3cn2-c2ccccc2)cc1	-3	-14%	-3%	-3.3%
COC(=O)c1cc2c(ccc3ccccc32)oc1=O	nt	nt	?	?
CCOC(=O)C1=C(CC)Nc2ccccc2N=C1NC(=O)c1oc2ccccc2c1C	-13	17%	1%	-2.3%
C(#Cc1ccccc1)CN1CCOCC1	-3	-9%	7%	-1.3%
CCOC(=O)c1cc2cc(F)ccc2nc1C	3	-7%	2%	-0.3%
COc1ccccc1N1CCN(CC(=O)Nc2ccc3c(c2)OCCO3)CC1	0	1%	17%	-0.5%
COc1cc(C#N)ccc1OCC(=O)Nc1cccc(S(=O)(=O)N2CCCC2)c1	-8	-18%	-1%	-4.2%
COc1cc2[nH]c(C(=O)N3CCN(c4ccccc4F)CC3)cc2c(OC)c1OC	nt	5%	-5%	-0.4%
N=c1n(CCN2CCCCC2)c2ccccc2n1CC(=O)c1cccc([N+](=O)[O-])c1	nt	-11%	17%	2.8%
Cn1c(=O)oc2cc(S(=O)(=O)NC(Cc3ccccc3)C(=O)N3CCCCC3)ccc21 (centres undefined)	-4	-8%	8%	-5.4%
Cc1ccc(S(=O)(=O)Nc2cc(C)c(O)cc2C)cc1	3	-1%	0%	?
CC1(c2ccc(OC(F)F)cc2)NC(=O)N(CC(=O)N2c3ccccc3NC(=O)C2(C)C)C1=O (centres undefined)	nt	nt	7%	-3.3%
CCCC(=O)n1nc(-c2ccccc2)nc1SC	0	-17%	-12%	-3.4%
CCN(CC)c1cc(C)c2cc(NC(=O)c3ccccc3F)ccc2n1	nt	-22%	3%	-0.5%
Cc1cccc(C(=O)Oc2ccccc2C2C[C@]3(C)CC(=O)NC3N2C(=O)c2cccc(C)c2)c1 (some centres undefined)	8	0%	1%	-1.1%
COc1cccc(CC(NC(C)=O)C(=O)NC2CCN(S(=O)(=O)c3ccc4ccccc4c3)CC2)c1 (centres undefined)	3	-2%	2%	2.8%
COc1ccccc1N(C)S(=O)(=O)c1ccc(C(=O)N2CCCc3ccccc32)cc1	nt	19%	3%	-3.4%
Cc1ccc(C2=NN(C(=O)CCl)C(c3cccs3)C2)o1 (centres undefined)	2	?	-10%	-2.3%
COc1cccc(Cn2c(C3CC3)nc3ccc(NC(=O)c4ccco4)cc3c2=O)c1	-9	-9%	nt	nt
O=C1c2ccccc2NC(c2cccs2)N1NS(=O)(=O)c1ccccc1 (centres undefined)	10[21.1 µM]	2%	6%	?
CCn1c(SCC(=O)Nc2cc(C)on2)nnc1-c1ccccc1	7	-7%	4%	0.6%
Cc1ccc(S(=O)(=O)NCCC(=O)OCC(=O)Nc2ccccc2Cl)cc1	0	-1%	-6%	0.6%
Cc1cccc2c(C(=O)O)c3cccc(C)c3nc12	nt	nt	-10%	?
COCC(=O)N1CCCC(C(=O)c2ccc(Oc3ccccc3)cc2)C1 (centres undefined)	2	1%	13%	0.1%
Cn1c(C(O)c2ccc(Br)cc2)nc(Cl)c1Cl (centres undefined)	-10	10%	0%	2.3%

Next part
SMILES	GLA inh pH 4.5	miR-21 reporter	Rango dissoc inh	Rango-impB inh
O=C(CSc1nnc(NC(=O)c2ccccc2F)s1)NC1CC1	nt	-39%	-11%	0.0%
COc1ccc(CCNC(=O)c2cc(-c3ccccn3)nc3ccccc23)cc1	nt	nt	-13%	-2.5%
Cc1nnc(SCc2nnc(-c3cccs3)o2)n1C	5	-6%	18%	-3.0%
Cc1ccc2[nH]c(-c3ccccc3)c(CN(C)C)c(=O)c2c1	5	-18%	-4%	3.6%
O=C(Nc1nccs1)c1c(O)c2cccc3c2n(c1=O)CCC3	-4	-4%	nt	nt
CN(C)S(=O)(=O)c1cccc(NC(=O)c2cnccn2)c1	-4	4%	nt	nt

7 compounds from above, arranged by length of the SMILES, highest first:
SMILES	GLA inh pH 4.5	miR-21 reporter	Rango dissoc inh	Rango-impB inh
CCOc1ccc(CC(=O)NCCS(=O)(=O)N2CCN(c3ccccc3)CC2)cc1	nt	nt	-17%	0.4%
CCOC(=O)c1cnc(SC2CC(=O)N(c3ccc(C)cc3)C2=O)nc1N (centres undefined)	11	-13%	2%	-1.4%
Cc1ccc2[nH]c(-c3ccccc3)c(CN(C)C)c(=O)c2c1	5	-18%	-4%	3.6%
CCOc1ccc(S(=O)(=O)Nc2ccc(C(=O)NN)cc2)cc1	5	-22%	-2%	-2.0%
CN(C)S(=O)(=O)c1cccc(NC(=O)c2cnccn2)c1	-4	4%	nt	nt
Cc1nc2c(-c3ccccc3)cnn2c(N)c1-c1ccccc1	nt	0%	-2%	-1.9%
Cc1cc(C(=O)NNC(=O)NC(C)C)no1	-4	4%	-21%	0.4%
